Screens: PubChem BioAssay, several laboratories
LANA-H2A inh – blockers of LANA interaction with H2A/H2B – biochemical, FP readout, HTS, primary screen. actives 0.6% (n = 320,000). AID 2629, 2010. Protein LANA1 (Human herpesvirus 8 type P (isolate GK18)), Q9QR71. cell-free LANA-H2A/H2B peptide, fluorescence polarization. inhibition, % (concentration not given with the values); in the data active = inhibition mostly above about 10%, no sharp cut-off; inactive = mostly below about 6.7%;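 note: stock transfer was 7.5 nL into about 10 µL; 0% = median of vehicle wells and 100% = median of positive control wells; one replicate is shown; the record names a cut of 25% in any replicate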
UCH37 DUB inh – inhibitors of human UCH37 deubiquitinase, primary screen, biochemical, Ub-AMC cleavage, fluorescence. Ubiquitin carboxyl-terminal hydrolase isozyme L5 (Homo sapiens), Q9Y5K5. purified proteasome/UCH37. inhibition, % (test concentration not listed). actives 0.33% (n = 330,000);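 active = mean of two replicates above 20%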;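 note: 0% = compound-free wells with enzyme and 100% = wells lacking proteasome; stock transfer was 100 nL into about 20 µL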
Target sequence (Q9Y5K5 whole entry, looked up): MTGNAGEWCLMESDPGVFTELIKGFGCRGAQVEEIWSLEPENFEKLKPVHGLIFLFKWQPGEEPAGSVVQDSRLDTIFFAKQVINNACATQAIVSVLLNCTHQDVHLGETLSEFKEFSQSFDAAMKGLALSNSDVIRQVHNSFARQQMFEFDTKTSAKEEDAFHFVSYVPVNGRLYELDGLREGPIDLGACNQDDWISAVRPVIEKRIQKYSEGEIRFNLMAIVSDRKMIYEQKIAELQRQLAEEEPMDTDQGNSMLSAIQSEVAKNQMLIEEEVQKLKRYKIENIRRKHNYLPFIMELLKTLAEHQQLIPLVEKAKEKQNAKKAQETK
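Signal – fluorescence, ex 355 nm, em 460 nm · System – Proteasome-bound UCH37 · Input – 0.15 nM proteasome as dispensed · Timing – 30 min preincubation with enzyme, 25 min cleavage at room temperature · Read-out basis – percent inhibition of cleavage signal versus uninhibited and no-proteasome wells · Medium – Tris-HCl pH 7.4 with ATP-MgCl2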
B2AR ag – beta2AR agonists driving receptor internalization, primary screen, cell-based, FAP fluorogen, flow cytometry. response, % (no concentration beside the values). AID 504454, 2011. Am2.2-beta2AR cells; reference of the scale not given here. Beta-2 adrenergic receptor (Homo sapiens), P07550. actives 0.43% (n = 340,000);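 active = response above a set limit, near 3 SD of response in nonfluorescent compounds, cut at about 42% in these data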;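 note: stock transfer was 100 nL into about 11 µL; a reference agonist was the positive control; negative values mostly stem from fluorescent compounds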
Target sequence (P07550 whole entry, looked up): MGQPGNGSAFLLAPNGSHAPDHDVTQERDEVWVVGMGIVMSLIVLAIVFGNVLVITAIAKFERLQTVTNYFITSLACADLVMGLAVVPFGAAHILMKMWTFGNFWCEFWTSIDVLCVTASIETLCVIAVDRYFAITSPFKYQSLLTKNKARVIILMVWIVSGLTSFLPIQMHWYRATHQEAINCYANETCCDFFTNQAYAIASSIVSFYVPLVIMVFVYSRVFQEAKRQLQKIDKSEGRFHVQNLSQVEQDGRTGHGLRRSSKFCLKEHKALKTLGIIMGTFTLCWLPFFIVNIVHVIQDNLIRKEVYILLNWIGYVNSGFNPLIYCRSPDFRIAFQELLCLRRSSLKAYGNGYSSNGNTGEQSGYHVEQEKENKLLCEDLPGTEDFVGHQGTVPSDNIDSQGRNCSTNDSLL
ALR inh – inhibitors of human ALR sulfhydryl oxidase, primary screen, biochemical, H2O2 detection, HRP-luminol luminescence, single point. FAD-linked sulfhydryl oxidase ALR (Homo sapiens), P55789. purified ALR, DTT oxidation. inhibition, % (concentration not given with the values). actives 3.8% (n = 290,000);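 active = mean and each replicate at 75% or more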;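 note: stock transfer was 7.5 nL into about 7.5 µL; 0% = neutral wells and 100% = wells with inactivated enzyme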
FGF22 binding – binders of human FGF22 protein, primary screen, FGF22 synaptogenesis inhibitor project, biophysical, thermal shift, single point; calls only at 9.99 µM; Fibroblast growth factor 22 (Homo sapiens), Q9HCT0; AID 651658, 2012; actives 1.5% (n = 340,000); recombinant FGF22 thermal shift, SYPRO orange fluorescence; percent of sucrose octasulfate shift, DMSO zero;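 active = melting point raised past a set limit in the mean and every replicate; three in four hits are not shown here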
Target sequence (Q9HCT0 whole entry, looked up): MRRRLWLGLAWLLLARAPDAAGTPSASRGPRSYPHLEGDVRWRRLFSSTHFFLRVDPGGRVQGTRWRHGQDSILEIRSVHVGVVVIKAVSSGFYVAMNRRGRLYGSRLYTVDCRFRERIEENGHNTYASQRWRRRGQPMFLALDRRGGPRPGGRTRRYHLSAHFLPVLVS
E coli growth – E. coli growth inhibition, primary screen, OD600; actives 0.21% (n = 330,000); AID 1053175, 2014; OD600 absorbance (test concentration not listed); Escherichia coli growth, 23 h; hits give low values;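 active = OD600 absorbance below the run mean of sample wells minus 3.6 SD, in any replicate, cut at about 0.56 in these data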;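 note: stock transfer was 300 nL into about 60 µL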
HNF4A DNA FP – change in binding of human HNF4A to DNA, primary screen, biochemical, fluorescence polarization, FITC-DNA; Hepatocyte nuclear factor 4-alpha (Homo sapiens), P41235; 1 h; activity change, % at 10 µM; actives 0.3% (n = 360,000); in the data active = activity change above about 30%, passing the limit was not always enough;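 note: controls were the assay level and a saturating level of protein; the project sought stronger binding though the title names inhibitors; some compounds called inactive have numbers as strong as hits; positive values seem to mean higher polarization but the record does not say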
* hit, by the source's call; i = inactive; . = not tested or not shown. These rows are one share of the data (hit frequency here may not be typical).

mol	E coli growth	ALR inh	UCH37 DUB inh	HNF4A DNA FP	FGF22 binding	B2AR ag	LANA-H2A inh
CC(C)[C@H](NC(=O)c1ccccc1F)C(=O)NCCc1ccccc1	0.67	-16	1.0	3.0	i	5	1.9
C=CCc1c(C)nc2c(C(=O)O)cnn2c1C	0.75	5	-21	-4.8	i	-4	-4.6
O=C(NCc1ccccc1F)c1ccc2c(c1)OCO2	0.69	-12	0.5	3.2	.	0	-0.2
Clc1ccccc1Cc1noc(CN2CCN(c3cnccn3)CC2)n1	0.69	-64	-0.1	5.1	i	-1	-0.1
COc1ccc(-n2c(SCC(=O)Nc3ccc(Cl)cc3)nc(O)c(Cc3ccccc3)c2=O)cc1	0.69	56	1.2	3.2	i	2	2.8
Cc1ccc(OCCn2cnc(Cl)c2Cl)cc1	0.69	-15	-2.2	0.2	i	0	1.8
O=C(OCc1ccc(F)cc1)c1cccnc1Cl	0.68	28	1.2	-1.1	i	3	-2.5
O=S(=O)(Nc1ncccc1O)c1ccc(Cl)cc1	0.71	-34	2.2	0.7	.	-5	4.4
C#CCn1c(=NC(=O)c2ccc(Br)s2)sc2cc(NC(C)=O)ccc21	.	-14	.	-0.8	.	-4	0.2
CCn1nc(C)c(Br)c1-c1nc(-c2cccc(C)c2)no1	0.65	.	2.3	-6.3	.	7	-2.0
CCC(c1nnnn1Cc1ccco1)N1CCN(c2cc(Cl)ccc2C)CC1 (stereo unspecified)	0.77	-10	4.0	3.1	.	-3	1.9
Cc1ccc(NC(=O)COc2ccc3c(c2)OCO3)c(C)c1	0.7	-3	3.1	-2.7	i	-4	2.0
CC(NC(=O)c1ccccc1[N+](=O)[O-])C1CC2CCC1C2 (stereo unspecified)	0.66	-7	2.5	2.5	i	5	2.2
Cc1[nH]c2ccccc2c1SCC(=O)N1CCC(C)CC1	0.67	16	2.3	1.8	i	-6	-6.6
CCCc1cc(=O)n2[nH]c(C)c(-c3ccc(Cl)cc3)c2n1	.	32	.	2.2	i	4	2.8

mol	E coli growth	ALR inh	UCH37 DUB inh	HNF4A DNA FP	FGF22 binding	B2AR ag	LANA-H2A inh
COc1ccccc1-c1cc(C(=O)Nc2sc3c(c2C#N)CCC(C)C3)c2ccccc2n1 (stereo unspecified)	0.69	-14	2.9	2.1	.	2	0.6
Nc1cc(=O)[nH]c(SCC(=O)Nc2cc(S(=O)(=O)N3CCOCC3)ccc2Cl)n1	0.72	36	3.9	-2.8	i	0	-9.0
CCOC(=O)c1cc(-c2ccc(OC)cc2)nc2c1c(C)nn2CCC(N)=S	0.7	-4	-80	4.3	i	-9	0.3
CC(C)CCNC(=O)c1ccccc1SCC(=O)NC1CCCCCCC1	0.65	3	1.0	1.4	i	1	-1.8
COc1ccc(C(C(=O)NCc2ccccc2)N(C(=O)c2snc(C(N)=O)c2N)C2CCCC2)cc1O (stereo unspecified)	.	.	.	-3.3	.	1	-3.3
CCCc1cc(=O)oc2cc(C)cc(OC(=O)c3ccco3)c12	0.73	2	-1.7	-0.4	i	-3	-9.8
Cc1cc(OCCN2CCCC2)cc(C(C)C)c1	0.66	2	4.6	3.2	.	4	4.0
COc1ccc(NC(=O)CC2C(=O)N(c3ccc(OC)cc3)C(=O)N2Cc2ccc(OC)c(OC)c2)cc1 (stereo unspecified)	0.65	-7	3.4	-1.3	i	-2	-1.6
O=C(NCCc1ccncc1)Nc1ccc(Cl)cc1	0.71	-1	2.9	1.8	.	-1	-1.0
O=S(Cc1cc(Sc2ccccc2)nc(-c2ccccc2)n1)c1ccccc1 (stereo unspecified)	0.78	-1	1.2	0.1	.	-2	1.1
O=C(COC(=O)c1ccc(F)cc1)NCCc1ccc(F)cc1	0.71	.	0.8	0.1	i	-1	.
Cc1nn(-c2ccccc2)c2c1C(O)CC(C)(C)C2 (stereo unspecified)	0.6	3	0.9	0.7	i	-4	-18
CC(=O)NC12CC3CC(C1)CC(C(=O)N1CCN(S(=O)(=O)c4ccc(Cl)s4)CC1)(C3)C2	0.7	4	6.4	-1.5	i	5	-0.1
C#CCn1c(-c2ccccc2)ccc(C#N)c1=O	0.68	-3	-3.1	-2.6	i	2	5.6
CCn1nnnc1SCC(=O)Nc1nc2ccc(OC)cc2s1	0.72	-2	0.1	2.2	.	-2	-2.3

mol	E coli growth	ALR inh	UCH37 DUB inh	HNF4A DNA FP	FGF22 binding	B2AR ag	LANA-H2A inh
Cc1ccc(/C(O)=C/c2nc3cc(C)ccc3oc2=O)cc1	0.65	8	4.8	0.2	.	6	26*
CCNc1nnc(-c2ccccc2OC)s1	0.71	-7	-45	.	.	.	-4.7
Cc1cc(C)c(-c2nc3ccccc3s2)[nH]1	0.71	3	-94	29	i	4	-7.3
COC1OC2COC(c3ccccc3)OC2C(OC(=O)c2ccccc2)C1OC(=O)c1ccccc1 (stereo unspecified)	0.71	.	0.4	0.5	i	6	.
CCOc1ccc(NC(=O)C2CC(=O)N3CCCN=C3S2)cc1 (stereo unspecified)	0.76	-9	3.5	0.2	.	2	3.7
C/C(=C/c1ccccc1)C(=O)N1CCN(c2ccccc2F)CC1	0.69	-2	5.9	1.0	i	1	-5.6
CC1=CC(C)C(C(=O)O)C(C(=O)N2CCN(C)CC2)C1 (stereo unspecified)	.	-5	.	-17	.	-3	-2.1
C1CNCCOCCNCCN1	0.75	6	1.8	2.5	.	0	-5.1
CC(=O)Nc1ccc(NC(=O)c2ccc(OCc3c(C)noc3C)cc2)cc1	0.69	.	0.7	-1.9	i	-5	-1.3
O=C(Cc1ccc(Br)cc1)N1CCCC1	0.66	.	0.3	-1.1	i	-6	5.3
CCOC(=O)C1=C(C)NC(=O)NC1c1ccc(N(CC)CC)cc1 (stereo unspecified)	0.75	98*	6.7	3.4	i	0	-1.4
Cc1cccc(C)c1NC(=O)CSc1nc2[nH]c(=O)cc(O)c2s1	0.65	0	9.6	-1.6	i	-5	-2.5
COC(=O)c1cc(=O)cc(C(=O)OC)o1	0.68	-7	0.3	1.9	.	1	-1.2
CCc1ccc(CN(C)C(=O)C2CCC(=O)N(CCc3ccc(OC)cc3)C2)nc1 (stereo unspecified)	0.65	15	0.5	-2.3	i	-5	29*
CC(C)COc1ccccc1C(=O)NC(CO)C(=O)O (stereo unspecified)	0.67	-10	4.4	6.5	.	1	4.1

mol	E coli growth	ALR inh	UCH37 DUB inh	HNF4A DNA FP	FGF22 binding	B2AR ag	LANA-H2A inh
COc1ccc(CCC(C)NC2CCCCCCC2)cc1 (stereo unspecified)	0.62	-10	0.9	2.4	i	-4	-7.5
CCCCN(C(=S)Nc1ccc(F)cc1)c1c(N)n(CCC)c(=O)[nH]c1=O	0.66	.	1.8	2.0	i	2	-4.4
Cc1cccc(OC(C)C(=O)OCC(=O)Nc2sccc2C(N)=O)c1 (stereo unspecified)	0.69	.	1.7	3.6	i	-1	-6.9
CCOC(=O)c1c(Nc2ccccc2OCCOC)n[nH]c1C	0.66	7	4.4	1.5	i	6	-2.9
COc1ccc(NC(=O)CCN2CCCC2)c(OC)c1	0.71	-5	3.3	0.4	.	8	-6.8
Cc1cc2nc(C)n(CCCNC(=O)Nc3cccc4ccccc34)c2cc1C	0.72	-35	3.3	2.8	.	-2	4.7
COc1ccc(C2=NCCNC(C(F)(F)F)=C2)cc1	0.69	14	13	5.3	i	1	-0.3
COC(=O)[C@@]1(C)[C@H]2C(=O)N(C)C(=O)[C@H]2[C@H]2CN(C)C(=NC3CCCCC3)N21	0.69	.	0.2	3.8	.	-4	.
N/C(Cc1ccc(Cl)cc1Cl)=N\OC(=O)Cc1ccccc1	0.69	-8	2.0	0.4	i	6	-3.7
Cc1ccc(S(=O)(=O)N2CCC(C(=O)N[C@H](C(=O)NCc3ccco3)C(C)C)CC2)cc1	0.66	-16	5.0	0.3	.	-9	2.1
COc1cccc(C(C)NC(=O)Nc2cccc(C(F)(F)F)c2)c1 (stereo unspecified)	0.62	-14	3.0	-0.3	.	5	8.2
Nc1nonc1-n1nnc(C(=O)N/N=C/c2ccccc2Cl)c1CN1CCOCC1	.	.	.	2.5	i	-3	6.6
CC(C)(C)NC(=O)COC(=O)CCC(=O)c1ccc(Cl)cc1	0.7	8	3.3	-4.5	i	18	-6.4
CCN(CC(=O)Nc1c(F)cccc1F)C(=O)/C=C/c1c(C)nn(-c2ccc(F)cc2)c1C	0.66	10	1.2	2.0	i	-8	2.0
COc1ccc(CNC(=O)CCCC(=O)Nc2cccc(Br)c2)cc1	0.6	2	5.6	4.3	i	5	-12

mol	E coli growth	ALR inh	UCH37 DUB inh	HNF4A DNA FP	FGF22 binding	B2AR ag	LANA-H2A inh
COC(=O)NNC(=O)c1ccc(C)cc1	0.67	3	2.2	1.8	.	1	-1.0
Cc1cc(NC(=O)CSc2nnc(C(C)N(C)C)n2-c2ccc(F)cc2)no1 (stereo unspecified)	0.68	-17	1.8	-5.0	i	0	6.1
COc1cc(NC(=O)CN(C)Cc2cccc(F)c2)c(C)cc1[N+](=O)[O-]	0.73	-4	8.8	5.0	i	-3	-1.0
Cc1nn(-c2ccc(N3CCOCC3)nn2)c(C)c1CCC(=O)Nc1ccccc1	0.72	-8	1.7	0.5	i	10	-0.4
CCn1c(=N)c(S(=O)(=O)c2ccc(C)cc2)cc2c(=O)n3ccccc3nc21	0.7	42	-324	.	i	.	1.3
Cc1cccc(Nc2nc(N)nc(CN3CCN(c4ccccc4F)CC3)n2)c1	0.65	-4	0.2	1.4	.	-8	-8.3
Cn1nnnc1Sc1ncnc2scc(-c3ccccc3Cl)c12	0.68	0	1.0	4.1	i	-2	-2.4
CC1CCCC(NC(=O)c2cccc(N3CCCC3=O)c2)C1C (stereo unspecified)	0.71	0	-2.4	2.0	i	-36	-2.6
O=C(CN1CCN(c2ccccn2)CC1)Nc1ccccc1Br	0.66	-2	0.9	0.7	i	-21	-2.1

Laid out differently: results already given.
COC(=O)NNC(=O)c1ccc(C)cc1
  E coli growth: 0.67; ALR inh: 3; UCH37 DUB inh: 2.2; HNF4A DNA FP: 1.8; FGF22 binding: .; B2AR ag: 1; LANA-H2A inh: -1.0
O=C(CN1CCN(c2ccccn2)CC1)Nc1ccccc1Br
  E coli growth: 0.66; ALR inh: -2; UCH37 DUB inh: 0.9; HNF4A DNA FP: 0.7; FGF22 binding: i; B2AR ag: -21; LANA-H2A inh: -2.1
